IP6K1 inh – blocks human inositol hexakisphosphate kinase 1; activity change, % (series mostly up to about 58 µM); 0.81% of 140,000 active; IP6K1 kinase, ADP-Glo luminescence, 2 h; active compounds read low; AID 1645851; in the data active = activity change below about -25%
Target sequence (Q92551 whole entry, looked up): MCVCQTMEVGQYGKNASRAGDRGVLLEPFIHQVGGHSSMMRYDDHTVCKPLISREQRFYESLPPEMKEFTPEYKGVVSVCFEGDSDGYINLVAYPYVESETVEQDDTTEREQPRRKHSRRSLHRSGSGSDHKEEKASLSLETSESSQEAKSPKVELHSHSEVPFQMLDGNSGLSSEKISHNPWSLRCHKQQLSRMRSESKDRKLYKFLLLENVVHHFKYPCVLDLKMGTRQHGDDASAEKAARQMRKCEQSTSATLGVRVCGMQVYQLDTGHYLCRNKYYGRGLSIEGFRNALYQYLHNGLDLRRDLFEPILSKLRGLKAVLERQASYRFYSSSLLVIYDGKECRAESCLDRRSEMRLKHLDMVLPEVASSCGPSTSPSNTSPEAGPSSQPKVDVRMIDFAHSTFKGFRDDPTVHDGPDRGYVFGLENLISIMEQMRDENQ
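ADP-Glo luminescence measures ADP made by human IP6K1 during a 2 h RT reaction with ATP/IP6 (mix at 1.3 mM/130 uM); top library doses 57.5 and 19.1 uM final.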
3T3 cytotox – NIH 3T3 cell cytotoxicity. NIH 3T3 viability, CellTiter-Glo ATP luminescence, 48-72 h. 4.3% of 94,000 active. AID 1345082. Potency, µM (doses to about 96.7 µM), for the others: at the highest dose activity change, negative = cytotoxicity, actives largely listed as inhibitors; also: potency is read from the fitted curve at half-maximal effect; nearly all actives have a fitted effect of over 55% in size
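NIH 3T3 cells at 400 cells/well received 23 nL of compound by pintool and were incubated 48 or 72 h at 37 °C. Viability was read as ATP-coupled CellTiter-Glo luminescence.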
HEK293 viab – counter-screen for SNCA expression inhibitors: cell viability | HEK-293-SNCA-luc viability, GF-AFC fluorescence, 24 h | Potency, µM (series often up to 57.1 µM), for the others: at the top dose activity change, negative = cytotoxicity, hits mostly cytotoxic | 0.12% of 150,000 active;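 also: potency is read from the fitted curve at half-maximal effect; 0% = DMSO-treated cells and -100% = medium-only wells without cells; nearly all actives have a fitted effect of over 30% in size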
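Cytotoxicity counterscreen: after 24 h compound treatment of genome-edited SNCA-luciferase HEK-293 cells, live-cell protease substrate GF-AFC read by fluorescence after 30 min; activity scaled between DMSO (0%) and medium-only (-100%), curves Hill-fitted.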
HEK293 tox – kills HEK 293 cells; 6.6% of 94,000 active; Potency, µM (top dose mostly 115 µM), inactives show at the top dose activity change, negative = cytotoxicity, hits mostly inhibitors; HEK 293 viability, ATP luminescence (CellTiter-Glo), 48-72 h; AID 1345083; also: potency is read from the fitted curve at half-maximal effect; nearly all actives have a fitted effect of over 60% in size
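HEK 293 seeded at 250 cells/well receive compound via pintool. After 48 or 72 hr at 37 degree Celsius, 5% CO2 and 95% humidity, CellTiter-Glo is dispensed and luminescence read following 10 min at room temperature.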
Luciferase inh – blocks purified firefly luciferase enzyme activity | P08659 | purified P. pyralis luciferase, luminescence, biochemical | Potency, µM (highest dose often 115 µM), inactives show at the top dose activity change, negative = inhibition, hits mostly inhibitors | 2.5% of 76,000 active | AID 1347043; also: potency is read from the fitted curve at half-maximal effect; nearly all actives have a fitted effect of over 65% in size
Target sequence (P08659 whole entry, looked up): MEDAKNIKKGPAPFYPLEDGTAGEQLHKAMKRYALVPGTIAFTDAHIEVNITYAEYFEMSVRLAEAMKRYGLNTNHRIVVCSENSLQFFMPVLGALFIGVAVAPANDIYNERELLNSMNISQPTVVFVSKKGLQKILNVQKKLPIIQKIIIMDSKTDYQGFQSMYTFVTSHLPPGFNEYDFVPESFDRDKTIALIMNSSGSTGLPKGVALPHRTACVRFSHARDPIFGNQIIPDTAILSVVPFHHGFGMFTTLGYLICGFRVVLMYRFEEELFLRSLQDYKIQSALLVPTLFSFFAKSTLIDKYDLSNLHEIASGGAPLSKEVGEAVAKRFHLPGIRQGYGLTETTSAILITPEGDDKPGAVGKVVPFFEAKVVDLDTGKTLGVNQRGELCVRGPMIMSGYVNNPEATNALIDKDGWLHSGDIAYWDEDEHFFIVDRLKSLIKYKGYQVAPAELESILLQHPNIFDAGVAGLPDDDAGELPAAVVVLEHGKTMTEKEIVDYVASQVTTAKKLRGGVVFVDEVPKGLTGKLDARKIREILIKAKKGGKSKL
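Luminescence read by CCD imaging after purified firefly luciferase (10nM final) was added to substrate buffer holding 10uM D-luciferin and 10uM ATP, pH 7.5, pre-dosed with compound.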
SNCA expr inh – reduces expression of the alpha-synuclein gene; HEK-293 SNCA-luciferase knock-in, luminescence, 24 h; Potency, µM (highest dose often 57.2 µM), for the others: at the highest dose activity change, negative = inhibition, hits mostly inhibitors; 0.17% of 140,000 active;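 also: potency is read from the fitted curve at half-maximal effect; plate controls were DMSO cells for no effect and cell-free wells for full effect; nearly all actives have a fitted effect of over 45% in size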
An asterisk follows results filed as active; i = inactive; ? = inconclusive; . = not tested or not shown; [ ] = another dose, or the depositor's remark. Unless noted, calls follow the shape of the dose curve; as a rule, active = well fitted curve in the direction sought with a large enough effect; inconclusive = small, poorly fitted or top-dose-only effect, or another doubt; inactive = no such curve, though single readings can be large; an effect the other way counts as inactive or inconclusive. Unless noted, % is scaled to controls: 0 for no effect and ±100 for the full control effect. The list is partial (hit frequency here may not be typical).

SMILES	IP6K1 inh	3T3 cytotox	HEK293 viab	HEK293 tox	Luciferase inh	SNCA expr inh
CN1CCN(CC2(O)CCC3(CCN(S(=O)(=O)N(C)C)CC3)CC2)CC1	-7	-24%	21%	-10%	.	8%
CC(=O)c1c(O)cc2cccc3c2c1CC(C)(O)O3 (stereo unspecified)	1	.	-18%	.	.	.
Cc1ncc(C(=O)N(C)CC2CCCN(CCc3ccc(Cl)cc3)C2)c(=O)[nH]1 (stereo unspecified)	-9	-3%	8%	-29%	0%	53%[activator]
COc1ccc(CNC(=O)NCC2Cn3cccc3C(=O)N2Cc2ccccc2)cc1 (stereo unspecified)	-3	-22%	-2%	-20%	-2%	19%
CC(C)C(=O)N1CCC2(CC1)OCC(C(=O)N1CCCC1)N2C(=O)c1ccccc1 (stereo unspecified)	-4	-27%	-23%	-11%	-10%	6%
COc1ccccc1-c1ccnc(N[C@H]2CO[C@H]3[C@@H]2OC[C@@H]3NC(=O)COc2ccccc2)n1	-4	?	6%	-25%	-8%	20%
O=C(NCC1(N2CCOCC2)CCCC1)c1cn(Cc2ccccc2Cl)nn1	6	-2%	4%	-17%	12%	27%
COc1cccc(CCNC(=O)c2c(C)noc2-c2ccco2)c1	11	?	-18%	?	-14%	-6%
C#CCN(C)C(=O)c1onc(-c2ccc(Cl)cc2)c1[C@H](C)O	-1	?	3%[87.6 µM]	?	-7%[172 µM]	-1%[87.6 µM]
O=C1CCCCC(Cc2ccccc2)(C(=O)NCCc2ccccc2)N1 (stereo unspecified)	0	-10%	-9%	0%	10%	7%
CN1[C@@H](CCC(=O)N2CCc3ccccc32)CNC(=O)[C@@H]2[C@H]1CCN2Cc1ccccc1	-17	?	-7%[87.6 µM]	?	-2%[172 µM]	10%[87.6 µM]
O=C(O)C[C@@H]1CCN(C(=O)C2CCCCC2)C[C@@H]1CCN1CCN(c2ccccc2)CC1	9	i	3%	i	-2%	1%
O=C1CCCN1CCCN1C(=O)[C@H]2CN(Cc3cccc(Cl)c3)C[C@H]2C1=O	7	-4%	-11%	9%	15%	-18%
Cc1ccccc1S(=O)(=O)N1CCCC(Cc2noc(-c3cnccn3)n2)C1 (stereo unspecified)	6	-18%	1%	?	-16%	-10%
O=C(NCCCN1CCCC1=O)C1Cn2cccc2C(=O)N1Cc1ccccc1 (stereo unspecified)	-3	-7%	7%	3%	0%	-28%
CN1CCCCCCN(C(=O)Nc2ccccc2)CCC1=O	1	-24%	-24%	-18%	-5%	-8%
O=C(c1cccc2c1OCCO2)N1CCCn2nc(CO)cc2C1	12	i	1%	i	-1%	?
N#Cc1cccc(-c2c(-c3ccccc3)ncn2CCCN2CCC(O)CC2)c1	0	-26%	-9%	-10%	2%	10%
CC(CNS(=O)(=O)C(C)C)c1ccc(-c2ccc(C#N)cc2)cc1 (stereo unspecified)	-19	.	-29%	.	.	.
O=C(CN1CCCC1=O)NCC1Cn2cccc2C(=O)N1Cc1ccccc1 (stereo unspecified)	12	-1%	1%	0%	0%	-12%
CCc1cc(C2CCCN2C(=O)c2cccs2)on1 (stereo unspecified)	21	i	-4%	3%	-4%	-7%
COc1ccc(-c2nc3cnccn3c2NCCC(=O)N2CCCCCC2)cc1	4	0%	?	-3%	?	0%
COc1ccc(CC(=O)N2CCc3c(cnc(C)c3CNC(=O)c3ccc4c(c3)OCO4)C2)cc1	28	1%	-16%	-1%	-7%	9%
Cc1ccoc1C(=O)N1CCC(N2CCCC(C(=O)NCc3ccccc3)C2)CC1 (stereo unspecified)	3	-1%	-18%	-30%	-2%	-12%
CNCCC(c1cccs1)c1ccc(O)c2ccccc12 (stereo unspecified)	12	.	-9%	.	.	.
C/C=C/C1=CC2=C(CO1)C(=O)[C@](C)(O)[C@H](OC(=O)c1c(O)cc(OC)c(O)c1C)C2	11	.	-17%[23.9 µM]	.	.	.
O=C(Nc1ccccc1)N[C@H]1C[C@H]2C(=O)NC[C@@H](CCC(=O)N3CCc4ccccc43)N2C1	2	-19%	6%	-1%	-13%	-1%
Cc1c(C(C)NC(=O)c2ccc(C#N)nc2)cnn1-c1ccc(F)cc1F (stereo unspecified)	-15	?	0%	?	-7%	-5%
CC(C)[C@@H]1CN(C(=O)c2ccc(F)cc2F)C[C@H]1NS(=O)(=O)N(C)C	-4	?	0%	1%	11%	10%
CCCS(=O)(=O)N1CC(CNC(C)=O)C2(CCCCC2)C1 (stereo unspecified)	9	-15%	-11%	-10%	.	5%

An excerpt of these results, with two lines to a compound:
Values in the order – IP6K1 inh	3T3 cytotox	HEK293 viab	HEK293 tox	Luciferase inh	SNCA expr inh
O=C1CCCCC(Cc2ccccc2)(C(=O)NCCc2ccccc2)N1 (stereo unspecified)
    0	-10%	-9%	0%	10%	7%
CN1[C@@H](CCC(=O)N2CCc3ccccc32)CNC(=O)[C@@H]2[C@H]1CCN2Cc1ccccc1
    -17	?	-7%[87.6 µM]	?	-2%[172 µM]	10%[87.6 µM]
O=C(O)C[C@@H]1CCN(C(=O)C2CCCCC2)C[C@@H]1CCN1CCN(c2ccccc2)CC1
    9	i	3%	i	-2%	1%
O=C1CCCN1CCCN1C(=O)[C@H]2CN(Cc3cccc(Cl)c3)C[C@H]2C1=O
    7	-4%	-11%	9%	15%	-18%
Cc1ccccc1S(=O)(=O)N1CCCC(Cc2noc(-c3cnccn3)n2)C1 (stereo unspecified)
    6	-18%	1%	?	-16%	-10%
O=C(NCCCN1CCCC1=O)C1Cn2cccc2C(=O)N1Cc1ccccc1 (stereo unspecified)
    -3	-7%	7%	3%	0%	-28%
CN1CCCCCCN(C(=O)Nc2ccccc2)CCC1=O
    1	-24%	-24%	-18%	-5%	-8%
O=C(c1cccc2c1OCCO2)N1CCCn2nc(CO)cc2C1
    12	i	1%	i	-1%	?
N#Cc1cccc(-c2c(-c3ccccc3)ncn2CCCN2CCC(O)CC2)c1
    0	-26%	-9%	-10%	2%	10%
CC(CNS(=O)(=O)C(C)C)c1ccc(-c2ccc(C#N)cc2)cc1 (stereo unspecified)
    -19	.	-29%	.	.	.
O=C(CN1CCCC1=O)NCC1Cn2cccc2C(=O)N1Cc1ccccc1 (stereo unspecified)
    12	-1%	1%	0%	0%	-12%
CCc1cc(C2CCCN2C(=O)c2cccs2)on1 (stereo unspecified)
    21	i	-4%	3%	-4%	-7%
COc1ccc(-c2nc3cnccn3c2NCCC(=O)N2CCCCCC2)cc1
    4	0%	?	-3%	?	0%
COc1ccc(CC(=O)N2CCc3c(cnc(C)c3CNC(=O)c3ccc4c(c3)OCO4)C2)cc1
    28	1%	-16%	-1%	-7%	9%

(more compounds)
SMILES	IP6K1 inh	3T3 cytotox	HEK293 viab	HEK293 tox	Luciferase inh	SNCA expr inh
CCC1(C(=O)NCCCN2CCc3ccccc3C2)CCCCC(=O)N1 (stereo unspecified)	14	-2%	10%	-1%	-6%	-13%
CN(C)[C@@H]1[C@@H](NC(=O)c2ccc(N3CC(=O)NC3=O)cc2)[C@H]2CCO[C@H]21	6	0%	-15%	i	7%	-18%
CC(=O)N1CCc2ccc(C(=O)NC3CCCCCC3)cc21	-13	?	-3%	?	0.35µM*	?
Cc1nn(C)c(C)c1CN(Cc1ccnc2ccccc12)C1CC1	-15	-18%	-5%	?	-14%	-17%
C#CCNC(=O)C1CCc2nnc(CNC(=O)Nc3cccnc3)n21 (stereo unspecified)	4	i	5%	0%	.	5%
CC(=O)Oc1ccc(C2(c3ccc(OC(C)=O)cc3)Oc3ccccc3NC2=O)cc1	19	.	-15%	.	.	40%[25.6 µM]
COc1ccccc1CNC(=O)CN1CC[C@](C)(O)[C@@H](O)C1	4	3%	-15%	i	6%	-7%
O=C1c2c(nc(COc3ccc(F)cc3F)n2Cc2ccccc2)NCCN1Cc1ccccc1F	-11	?	-11%	?	0%	6%
O=C(N[C@H](c1ccccn1)C1CC(O)C1)c1cc(=O)n(-c2ccccc2)[nH]1 (stereo partly specified)	15	-1%	5%	-6%	-2%	1%
O=C(Nc1ccsc1)N[C@H]1C[C@H]2C(=O)NC[C@@H](CCC(=O)N3CCCC3)N2C1	-5	-18%[174 µM]	8%[87.6 µM]	-20%[172 µM]	-9%[172 µM]	8%[87.6 µM]

Sorted by SMILES length (smallest number first): part of the list above.
SMILES	IP6K1 inh	3T3 cytotox	HEK293 viab	HEK293 tox	Luciferase inh	SNCA expr inh
COc1ccc(CNC(=O)NCC2Cn3cccc3C(=O)N2Cc2ccccc2)cc1 (stereo unspecified)	-3	-22%	-2%	-20%	-2%	19%
CN1CCN(CC2(O)CCC3(CCN(S(=O)(=O)N(C)C)CC3)CC2)CC1	-7	-24%	21%	-10%	.	8%
CC(C)[C@@H]1CN(C(=O)c2ccc(F)cc2F)C[C@H]1NS(=O)(=O)N(C)C	-4	?	0%	1%	11%	10%

(cont.)
SMILES	IP6K1 inh	3T3 cytotox	HEK293 viab	HEK293 tox	Luciferase inh	SNCA expr inh
CN1CC(=O)N(C2CCNC2)Cc2c(NCc3ccccn3)ncnc21 (stereo unspecified)	0	5%	-1%	i	.	-1%
C[S+](=O)([O-])NCCNC(=O)c1cccc(-c2ccsc2)c1	16	-20%[138 µM]	7%[12.5 µM]	?	.	-17%[87.6 µM]
Cc1ccn2c(C(=O)N[C@H](c3cnn(C)c3)C3CC(O)C3)nnc2n1 (stereo partly specified)	20	2%	-9%	-15%	-4%	-6%
Cc1nc(CCNc2nc(-c3ccccn3)nc3c2c(C)nn3C)no1	1	?	-12%	?	-2%	-8%
CC(O)c1cc2n(n1)CCCN(CC(=O)N1CCOc3ccccc31)C2 (stereo unspecified)	1	1%	4%	2%	6%	-1%
CNC(=O)CCC[C@H]1NC[C@@H]2CCCN3CCC[C@H]1[C@H]23	-8	i	3%	16%	3%	2%
Cc1nc(C(=O)Nc2nn(Cc3ccccc3)c3cc(OC(C)C)ccc23)c(C)o1	12	?	3%	?	0%	27%
CCc1c(C)nn(CC(=O)NC2CCCN(c3ncccn3)C2)c1C (stereo unspecified)	7	-13%	3%	-5%	-4%	10%

Compound activity deposited in PubChem by National Center for Advancing Translational Sciences (NCATS).
